# Bioassay records as filed in PubChem.
# Mtb hypoxia rep: inhibitors of hypoxia-regulated fluorescent reporter in Mycobacterium tuberculosis; AID 1159583; fluorescence inhibition, % (concentration not given with the values); M. tuberculosis hypoxia-regulated fluorescent reporter, fluorescence; 0.1% of 300,000 active;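 active = 35 to 45% if threefold the growth effect, above 45% if 1.5-fold the growth effect; inactive = the rest, general growth blockers included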;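 also: wells of about 50 µL received 100 nL stock; 0% = vehicle wells and 100% = reference inhibitor wells; whole bacteria with a GFP reporter of the hypoxia response; strong numbers were not always called active; many hits fall short of the cut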
# RN4220 kill: S. aureus RN4220 growth inhibition | OD600, 16 h | 0.33% of 330,000 active | inhibition, % (no concentration beside the values);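 active = z-score of -3 or lower and OD600 up to 0.18 on both plates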;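 also: plate controls were untreated cells for no effect and reference antibiotic for full effect; stock transfer was 100 nL into about 80 µL; one replicate is shown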
# PrP 5UTR inh: suppresses PrP 5' UTR mRNA reporter expression | cell-based PrP 5' UTR mRNA reporter, plate reader | inhibition, % (concentration not given with the values) | 0.35% of 340,000 active;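 active = every replicate at 50% or more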;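 also: 0 = median of the neutral control wells; tested in H4 reporter cells; numbers are from one replicate; inactives centre near -14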
# BJeLR viability: kills HRASV12-expressing BJeLR cells. BJeLR (HRASV12) viability, CellTiter-Glo ATP luminescence, 48 h; reference of the scale not given here. inhibition, % (concentration not given with the values). 0.17% of 300,000 active;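 active = replicate mean above 50%; inconclusive = above 50% but judged a plate artefact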;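 also: 50 nL library stock added to about 25 µL; numbers are from one replicate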
# Sa ugtP lethal: kills S. aureus RN4220 lacking UgtP | AID 1259309 | S. aureus RN4220 ugtP deletion, OD600 growth, 16 h; some inactives read as strong as hits | growth inhibition, % (no concentration beside the values) | 0.54% of 330,000 active;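 active = z-score under -3 and OD600 up to 0.15 on both plates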;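 also: plate controls were untreated wells for no effect and antibiotic for full effect; wells of about 80 µL received 100 nL stock; the first replicate is given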
# Bead autofluor: flagged as autofluorescent in microsphere protease counterscreen; 3.1% of 360,000 active; fluorescence intensity (concentration not given with the values); AID 624483; compound autofluorescence counterscreen, microsphere flow cytometry; active compounds read high;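 active = at least 3 SD above the mean of all compounds, about 16000 in these data; inconclusive = too few beads counted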;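 also: 100 nL of 1 mM stock went into each well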
# Mtb hypoxia rep growth: further read-out of Mtb hypoxia rep, marked with its call; growth inhibition, %; measured here: M. tuberculosis growth (absorbance);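 0% = vehicle and 100% = reference antibiotic; read after six days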
# * marks the source's active call; other numbers are inactive results; ? = inconclusive; nt = not tested or not shown. Compounds were not picked by outcome. About 3.9% of those tested had a hit in this group.
SMILES,Mtb hypoxia rep,Mtb hypoxia rep growth,RN4220 kill,PrP 5UTR inh,BJeLR viability,Sa ugtP lethal,Bead autofluor
Cc1cc(Oc2nc3ccccn3c(=O)c2/C=C(\C#N)C(=O)NC2CCS(=O)(=O)C2)ccc1Cl (stereo unspecified),3,-1,3.4,-7,-10,-6,4802
O=C(CSc1nnc(CNc2ccc(Cl)cc2)n1Cc1ccccc1)NCc1ccco1,7,0,1.6,-3,-2,12,7693
COc1cc(OC)cc(-c2c(-c3cccs3)c3cc(-c4ccc5cc[nH]c5c4)ccc3n2C)c1,-2,-1,-3.9,-11,nt,-18,3980
CC1CCCN(C(=O)COc2ccc3c(c2)OCO3)C1 (stereo unspecified),nt,nt,5.2,-30,1,14,5753
CCCCOc1ccc(Cl)cc1CSc1nncn1N,-1,-1,-2.6,-12,-4,-3,20720*
CC(C)(C)NC(=O)C(c1ccc(O)cc1)N(C(=O)CCC(=O)Nc1nccs1)c1ccc(F)cc1 (stereo unspecified),-9,-6,2.6,-16,3,0,4969
CCC(C)(C)c1ccc(OC(=O)c2cccnc2Cl)cc1,12,9,0.6,-19,-7,-1,4877
N#CC1(NC(=O)COc2ccc3oc4ccccc4c3c2)CCCCC1,2,12,2.9,-14,-4,0,2448
CC1(C)CC(NC(=O)COc2ccc([N+](=O)[O-])cc2)CC(C)(C)N1,2,12,5.9,-31,-11,0,3823
Nc1ccc(CCN2CCN(c3cccc(C(F)(F)F)c3)CC2)cc1,-5,-5,2.5,53,7,-15,5917
Cc1cc(NS(=O)(=O)c2ccc(NS(=O)(=O)c3ccc(Br)cc3)cc2)no1,6,-2,7.6,-19,-4,12,5566
CCCCCN=C(C)c1c(O)c2ccccc2oc1=O,nt,nt,9.4,-54,-4,2,4976
CC1CCN(CCCNC(=O)CN2C(=O)CSc3ccc(S(=O)(=O)N4CCC(C)CC4)cc32)CC1,3,6,-0.7,-10,10,0,6036
COc1cc(/C=C2\N=C(c3ccccc3)OC2=O)ccc1OC(C)=O,10,-7,0.9,-7,-2,5,3967
O=C(c1ccco1)N1N=C(c2ccc3nccnc3c2)CC1c1ccccc1 (stereo unspecified),5,4,28,-44,-16,22,4218
Oc1ccc(N2CCN(C(=S)NCc3ccccc3)CC2)cc1,-4,2,5.4,88*,-4,14,4819
CCOC(=O)c1sc(NC(=O)CSc2nc3c(cc2C#N)CCCCC3)c(C#N)c1C,nt,nt,0.0,-25,22,-2,3072
COc1cc(C(=O)NN=c2sc3ccccc3n2C)cc(OC)c1OC,1,-6,6.8,nt,nt,3,nt
CCN(C(=O)c1cc(S(=O)(=O)N2CCc3ccccc32)cn1C)c1ccccc1,5,10,13,-35,2,-11,5495
Cc1ccccc1NC(=O)c1ccc(CN(c2ccccc2)S(=O)(=O)c2ccccc2)cc1,5,-4,2.2,-32,10,0,8484
CCOc1ccc(OCC)c(NS(=O)(=O)c2cccc3nsnc23)c1,2,9,6.7,-17,2,3,9563
Cn1c(=O)c(C(=O)NCc2ccc(Cl)cc2)c(O)c2ccccc21,14,5,1.3,-10,-6,4,3489
O=C(CC1Nc2ccccc2NC1=O)Nc1ccccc1 (stereo unspecified),nt,nt,nt,-36,-24,nt,3706
CCCCC(CC(O)COCC(C)C)C(=O)NN (stereo unspecified),17,8,2.0,1,7,1,4030
CSc1nnc(-c2ccc(S(=O)(=O)N3CCCCC3)cc2)o1,8,-2,4.0,-7,-8,4,6555

# (listing goes on)
SMILES,Mtb hypoxia rep,Mtb hypoxia rep growth,RN4220 kill,PrP 5UTR inh,BJeLR viability,Sa ugtP lethal,Bead autofluor
Cc1cccc(-n2c(-c3csc4ccccc34)n[nH]c2=S)c1,11,7,-2.3,-11,-3,24,2606
O=C(O)c1ccccc1C=NN1CCCCCC1,3,11,12,-2,nt,0,4052
Cc1[nH][nH]c(=O)c1C(c1c(C)[nH][nH]c1=O)c1cn(Cc2cccc3ccccc23)c2ccccc12,nt,nt,50,-19,nt,94*,2411
CCOc1ccc(N(CC(=O)NN=C2CCN(C)CC2)S(C)(=O)=O)cc1,-2,6,4.1,-12,-7,5,2078
O=C1NC(NS(=O)(=O)c2ccccc2)(C(F)(F)F)C(=O)N1c1ccc(F)cc1 (stereo unspecified),8,6,2.9,-11,-4,10,2614
COc1ccc(NC(=O)COc2ccc(C)c(C)c2)cc1S(=O)(=O)N1CCCCC1,-4,-1,0.8,-59,0,4,nt
CN(Cc1ccc(Cl)cc1)C(=O)c1ccc2ccccc2n1,-3,1,4.2,-6,4,-1,3086
COC(=O)c1sccc1NC(=O)c1cc(-c2cccc(C)c2)nc2ccccc12,-11,-38,-6.0,-14,-9,-7,2507
CCCCOc1ccc(/C=N/NC(=O)c2csc(C)c2C)cc1,nt,nt,nt,-15,-17,nt,4550
Cc1ccc(-n2c(CNC(=O)c3cccs3)nnc2SCC(=O)NO)cc1,-1,1,0.2,-14,21,-10,4987
CC(=O)N(Cc1ccccc1)c1nc(-c2ccccc2)cs1,14,3,-6.3,-19,1,66,3217
COc1ccc(NC(=O)C(Cl)=C(Cl)Cl)cn1,3,2,1.7,-2,1,-2,4406
COc1cccc(C(=O)C[n+]2ccccc2/C=N/O)c1,nt,nt,nt,-4,7,nt,2464
COc1cc(/C=C2/C(=N)N3OC(C)=CC3=NC2=O)ccc1OC(=O)c1ccco1,-1,-4,6.7,-18,-16,6,2623
Cc1ccc(C)c(CSc2nnc([C@@H](N)C(C)C)o2)c1,5,2,2.7,-2,3,-2,16262*
CCC(=O)c1ccc(OCCn2cncn2)cc1,nt,nt,2.4,-11,-3,5,3062
Cc1cc(C(=O)NP(=O)(N2CCOCC2)N2CCOCC2)c(C)n1C1CC1,3,14,0.9,-13,-7,1,4650
COC(=O)c1c(NC(=O)c2ccc(Br)o2)sc(C)c1C,3,3,2.8,-6,-9,7,10489
COc1ccc(CNCCNC(=O)c2ccco2)c(OC)c1OC,5,9,1.4,-12,-5,7,8927
CC(C)CC(=O)Nc1ccc2oc(-c3cccnc3)nc2c1,9,9,2.0,-47,2,3,6141
C[C@@H]1CC=C[C@H]2[C@H]1C(=O)N(Cc1ccccc1)[C@H]2c1ccc(-c2ccc(F)cc2)cc1F,nt,nt,nt,-34,1,nt,4189
CC(CC1CC(COCCC(C)C)OC1=O)=NNC(N)=S (stereo unspecified),1,5,1.4,nt,nt,-2,nt
Cc1c(NC(=O)c2ccccc2NS(=O)(=O)c2ccc(F)cc2)c(=O)n(-c2ccccc2)n1C,9,0,1.9,-20,-3,1,4587
O=C(Nc1ccc(CN2CCS(=O)(=O)CC2)cc1)c1ccc(Cl)cc1,2,7,3.0,-6,4,3,nt
CCOC(=O)c1c(NC(C)=O)sc2c(O)c(Br)cc(Br)c12,19,0,11,-17,6,-9,2611

# (cont.)
SMILES,Mtb hypoxia rep,Mtb hypoxia rep growth,RN4220 kill,PrP 5UTR inh,BJeLR viability,Sa ugtP lethal,Bead autofluor
CCOc1ccc(/C(O)=C2/C(=O)C(=O)N(CCN(C)C)C2c2ccccc2)cc1Cl (stereo unspecified),8,-1,-0.1,-25,-1,2,2381
O=C(NN=C(Cc1ncc[nH]1)c1ccccc1)c1ccccc1,-6,-2,5.5,nt,nt,21,nt
c1ccc(Cc2nn3c(C4COc5ccccc5O4)nnc3s2)cc1 (stereo unspecified),3,1,1.4,-37,-1,2,9255
O=C(COC(=O)c1cccnc1Cl)Nc1cc(S(=O)(=O)N2CCCCC2)ccc1Cl,11,-1,2.5,-28,-3,7,4375
CC(C)(C)c1ccc(S(=O)(=O)ON=C2CCCCC2c2ccc([N+](=O)[O-])cc2[N+](=O)[O-])cc1 (stereo unspecified),2,15,2.5,nt,nt,-4,nt
CC[C@H](C)[C@@H]1NC(=O)c2cc([N+](=O)[O-])cc(F)c2OCC[C@@H](C(N)=O)NC(=O)[C@H](CCCCN)NC1=O,nt,nt,nt,-1,-12,nt,2957
c1ccc(NC(=NCc2ccco2)c2ccccc2)cc1,4,4,2.4,-15,19,1,6397
O=C(c1ccc(S(=O)(=O)Cc2ccccc2Cl)c([N+](=O)[O-])c1)N1CCN(c2ccccn2)CC1,6,7,8.5,-14,-14,6,4126
CCCn1c(=N)n(CC(=O)O)c2ccccc21,1,6,3.4,-1,6,-5,15067
Cc1ccsc1C1C(C#N)=C(N)N(N(C)C)C2=C1C(=O)CC(C)(C)C2 (stereo unspecified),7,5,15,-24,-5,6,3190
C=CCOC(=O)C1=C[C@@H](c2cn(C(C)=O)c3ccccc23)C[C@@H](OCc2ccc(CO)cc2)O1,nt,nt,nt,-9,-3,nt,2931
CCOc1cc(/C=N/n2nnnc2N)ccc1OCc1c(C)no[n+]1[O-],nt,nt,nt,-12,-3,nt,2538
CC1(C)CC(NC(=O)c2cccc(S(=O)(=O)Nc3cccc(Cl)c3)c2)CC(C)(C)N1,7,2,-1.0,3,nt,2,3022
c1ccc(-c2ncc(CSc3nncn3-c3ccccc3)s2)cc1,nt,nt,-0.4,-6,-4,6,2332
CCC(CC)NC(=O)CN(c1ccccc1OC)S(=O)(=O)c1cccs1,9,10,2.0,-3,19,7,?
COc1ccc(NC(=O)C(C)N(c2ccc(C)cc2)S(C)(=O)=O)c(OC)c1 (stereo unspecified),nt,nt,3.8,-10,-5,-2,4856
CCOc1ccccc1CNC(=O)c1cc2occc2n1C,7,3,4.0,5,-6,7,5802
O=C(CC1CCCCC1)NCc1ccccc1Cl,12,23,-0.2,-22,4,2,3832
O=C(NCc1ccc(OC(F)(F)F)cc1)c1cccc2c1C(=O)c1ccc(N3CCCC3)cc1S2(=O)=O,18,9,8.8,13,nt,-1,2925
CCC(C)c1ccccc1N1CC(C(=O)NCCc2ccc(OC)c(OC)c2)CC1=O (stereo unspecified),1,11,1.7,-9,-10,2,?
CN(Cc1nc2c(s1)CCCC2)C(=O)CCc1nnc(-c2ccc3c(c2)OCO3)o1,12,4,3.4,-23,1,-5,6183
CC1CCC(NC(=O)Nc2cccs2)CC1 (stereo unspecified),1,7,-5.2,-14,4,-15,3129
Cc1cc(NC(=O)COc2ccccc2)n(-c2ccccc2)n1,-3,3,-1.2,-13,1,-2,5147
CCCCOc1ccc(NC(=O)c2cc(F)c(F)cc2Cl)cc1,10,1,14,-4,0,5,7156
COc1cc(Cc2cc(N)nc(N)n2)cc(OC)c1OC,3,1,98*,-14,-1,100*,3932

# (further entries)
SMILES,Mtb hypoxia rep,Mtb hypoxia rep growth,RN4220 kill,PrP 5UTR inh,BJeLR viability,Sa ugtP lethal,Bead autofluor
COC(=O)c1ccc(C(=O)OC)c(NC(=O)c2cccnc2)c1,6,-5,1.2,3,-9,13,nt
O=C(c1ccccc1)N(Cc1ccco1)C1CCS(=O)(=O)C1 (stereo unspecified),12,9,5.8,-23,0,-9,8593
Cc1cc(C)cc(NC(=S)N2CCN(c3ccccn3)CC2)c1,-8,4,-0.7,-11,-13,0,4212
COc1ccc(S(=O)(=O)NCC2CCCN(C(=O)C3CCCC3)C2)cc1 (stereo unspecified),12,8,7.6,-17,-2,-3,3446
CCOc1ccc(-n2cnc3sc4c(c3c2=O)CCCC4)cc1,20,6,2.5,nt,1,-3,4803
COc1ccc(NC(=O)c2ccc(Cl)cc2)c[n+]1[O-],13,4,1.2,-25,4,15,3729
Cc1cc(C)cc(NS(=O)(=O)c2ccc(NC(=S)NC(=O)c3ccc(Br)o3)cc2)c1,nt,nt,7.5,-3,2,-29,2261
Cc1ccc(S(=O)(=O)N(C)C)cc1NC(=O)COC(=O)c1sc2cc(Cl)ccc2c1Cl,-11,4,-3.3,-16,6,-14,4981
CCOc1ccccc1NC(=O)CS(=O)(=O)c1cn(CC(=O)N2CCOCC2)c2ccccc12,3,8,1.8,-14,10,1,5858

# Whole records, looked up by structure:
# COc1cc(OC)cc(-c2c(-c3cccs3)c3cc(-c4ccc5cc[nH]c5c4)ccc3n2C)c1 is listed with Mtb hypoxia rep = -2; Mtb hypoxia rep growth = -1; RN4220 kill = -3.9; PrP 5UTR inh = -11; BJeLR viability = nt; Sa ugtP lethal = -18; Bead autofluor = 3980
# CC1CCC(NC(=O)Nc2cccs2)CC1 (stereo unspecified) is listed with Mtb hypoxia rep = 1; Mtb hypoxia rep growth = 7; RN4220 kill = -5.2; PrP 5UTR inh = -14; BJeLR viability = 4; Sa ugtP lethal = -15; Bead autofluor = 3129
# c1ccc(NC(=NCc2ccco2)c2ccccc2)cc1 is listed with Mtb hypoxia rep = 4; Mtb hypoxia rep growth = 4; RN4220 kill = 2.4; PrP 5UTR inh = -15; BJeLR viability = 19; Sa ugtP lethal = 1; Bead autofluor = 6397
